Screening results as filed in PubChem.
MARV entry inh – inhibitors of Marburg virus binding or cell entry. Potency, µM (titrated, usually from 37.8 µM), inactives show at the top dose activity change, negative = inhibition, actives largely listed as inhibitors. actives 1.8% (n = 300,000). Marburg virus pseudotyped entry inhibition, cell reporter; control for the full effect not named in the record; about a third of the inactives were read at about 46 µM. AID 540276; active = well fitted inhibition curve with a large enough effect; inconclusive = small, poorly fitted or top-dose-only effect, or effect the other way; inactive = flat fitted curve, though single readings scatter; tested in HEK293 cells; about a fifth of its hits are not listed in these tables; also: % is scaled to controls: 0 for no effect and ±100 for the full control effect; luciferase read-out
Cruzain inh noDet – blocks cruzain activity in detergent-free assay; purified cruzain, Z-FR-AMC fluorescence, no detergent; Potency, µM, for inactives: max response, negative = inhibition, hits mostly inhibitors; P25779; actives 2.3% (n = 200,000); active = well fitted curve in the direction sought with a large enough effect; inconclusive = small, poorly fitted or top-dose-only effect, or another doubt; inactive = no such curve, though single readings can be large; an effect the other way counts as inactive or inconclusive;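 also: plate controls were enzyme without inhibitor for no effect and buffer without enzyme for full effect; nearly all actives have a fitted effect of over 40% in size; top concentration of the series not given in the record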
Target sequence (P25779 123-467 limits assumed): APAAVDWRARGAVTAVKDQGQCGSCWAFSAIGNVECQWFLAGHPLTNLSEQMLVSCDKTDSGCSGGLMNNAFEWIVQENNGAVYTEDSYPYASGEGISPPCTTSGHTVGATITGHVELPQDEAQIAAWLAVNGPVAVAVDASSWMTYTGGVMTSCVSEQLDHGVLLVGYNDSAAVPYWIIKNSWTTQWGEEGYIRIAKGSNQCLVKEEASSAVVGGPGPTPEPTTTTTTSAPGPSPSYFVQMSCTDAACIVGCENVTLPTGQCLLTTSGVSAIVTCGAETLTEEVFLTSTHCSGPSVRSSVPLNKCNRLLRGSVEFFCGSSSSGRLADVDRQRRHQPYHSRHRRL
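Purified cruzain at 1.5 nM, pre-incubated 15 min with compound at room temperature in 100 mM sodium acetate pH 5.5, 5 mM DTT, 0.00005% Triton X-100. Reaction started with 2 uM Z-FR-AMC; AMC fluorescence increase over 60 s gives rate.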
NS1 function inh – blocks influenza NS1 protein function | S. cerevisiae slowed by influenza A NS1, growth recovery by OD600 | Potency, µM (series often up to 46.1 µM), inactives show at the highest dose activity, positive = more growth | actives 0.4% (n = 270,000) | AID 2326; also: actives are rising curves; nearly all actives have a fitted effect of over 50% in size
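Growth recovery, yeast-based: influenza A NS1 expressed in S. cerevisiae causes slow growth, and suppressors are detected by OD600. The parent strain without NS1 is used as positive control.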
SARS PLP yeast – SARS-CoV PLP inhibition in yeast; S. cerevisiae expressing SARS-CoV PLpro, growth rescue; control for the full effect not named in the record; Potency, µM (doses to about 32.9 µM), for inactives: at the highest dose activity, positive = growth rescue; actives 0.19% (n = 330,000); also: 0% is about no effect; nearly all actives have a fitted effect of over 55% in size; growth read by luminescence after 48 h
StopGo reporter – FMDV 2A StopGo reporter, luciferase signal. human cells with a luciferase reporter of 2A StopGo recoding; control for the full effect not named in the record. AID 1159524. Potency, µM (highest dose often 57.9 µM), inactives show top-dose signal change, negative = less light. actives 1.2% (n = 410,000); active = well fitted falling curve with a large enough effect; inconclusive = small, poorly fitted or top-dose-only effect; inactive = no such curve, though single readings can be large or run the other way; tested in HEK293T cells; also: % is scaled to controls: 0 for no effect and ±100 for the full control effect; nearly all actives have a fitted effect of over 45% in size; luciferase light after 4 h
RE007 growth inh – less growth of the S. pombe RE007 Vpr strain | S. pombe RE007 Vpr strain, BacTiter-Glo ATP luminescence, 24 h; control for the full effect not named in the record | Potency, µM (titrated, usually from 92.2 µM), inactives show top-dose activity change, negative = less growth | actives 0.21% (n = 360,000) | AID 651644; active = well fitted falling curve with a large enough effect; inconclusive = small, poorly fitted or top-dose-only effect; inactive = no such curve, though single readings can be large or run the other way;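 also: % is scaled to controls: 0 for no effect and ±100 for the full control effect; nearly all actives have a fitted effect of over 50% in size; the assay follows cell death caused by Vpr and the record does not say whether a fall means rescue or toxicity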
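Fission yeast strain RE007, carrying one chromosomally integrated HIV-1 vpr copy, was seeded at OD 0.01 in PMG+AL medium with 23 nL pinned compound. After 24 h at 30 °C and 99% humidity, viability was read by BacTiter-Glo luminescence.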
Lassa entry inh – inhibitors of Lassa virus binding or cell entry | Lassa virus pseudotype entry inhibition, cell reporter; control for the full effect not named in the record | Potency, µM (top dose mostly 37.9 µM), inactives show at the top dose activity change, negative = inhibition, hits mostly inhibitors | actives 1.2% (n = 300,000); active means well fitted inhibition curve with a large enough effect; inconclusive means small, poorly fitted or top-dose-only effect, or effect the other way; inactive means flat fitted curve, though single readings scatter; tested in HEK293 cells; also: % is scaled to controls: 0 for no effect and ±100 for the full control effect; nearly all actives have a fitted effect of over 50% in size; luciferase read-out
Cruzain Triton – cruzain (T. cruzi) inhibition with detergent | P25779 | purified cruzain, Z-FR-AMC fluorescence, 0.01% Triton | Potency, µM, without a hit: max response, negative = inhibition, hits mostly inhibitors | actives 0.43% (n = 200,000); active = well fitted curve in the direction sought with a large enough effect; inconclusive = small, poorly fitted or top-dose-only effect, or another doubt; inactive = no such curve, though single readings can be large; an effect the other way counts as inactive or inconclusive;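 also: plate controls were neutral wells for no effect and buffer without enzyme for full effect; nearly all actives have a fitted effect of over 40% in size; top concentration of the series not given in the record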
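15 min RT preincubation of 1.5 nM cruzain with compound, then 2 uM Z-FR-AMC added; kinetic AMC fluorescence, 60 s delta. Triton X-100 0.01%, pH 5.5.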
An asterisk follows results filed as active; ? = inconclusive; / = no result given; [ ] = another dose, or the depositor's remark. Unless noted, calls follow the shape of the dose curve; as a rule, active means well fitted rising curve with a large enough effect; inconclusive means small, poorly fitted or top-dose-only effect; inactive means no such curve, though single readings can be large or run the other way. Potency is read from the fitted curve at half-maximal effect.

SMILES	MARV entry inh	Cruzain inh noDet	NS1 function inh	SARS PLP yeast	StopGo reporter	RE007 growth inh	Lassa entry inh	Cruzain Triton
O=C(Cn1c(CO)nc2ccccc21)NCCc1ccccc1	-6%[46.1 µM]	/	/	-1%	-5%	12%	-3%[46.1 µM]	/
CCN1CNC(=S)N(C(C)c2ccccc2)C1 (stereo not given)	15%	-2%	4%	-11%	-10%	2%	27%	-0.7%
CCc1cccc(N(CC(=O)NC2CCCCC2)C(=O)c2csnn2)c1	4%[46.1 µM]	/	23%	-1%	1%	11%	?	/
O=C(Nc1ccccc1)c1nc[nH]c1C(=O)O	?	10%	/	/	-2%	/	12%[46.1 µM]	0.6%
COCCNc1nc(NCc2ccccc2OC)c2cnn(C)c2n1	/	-5%	/	/	-27%	/	-4%[46.1 µM]	-1.8%
COc1ccc(-c2nc3c(c4nnc(SC(C)C(=O)Nc5ccc(C)cc5)n24)COC(C)(C)C3)cc1 (stereo not given)	-25%	?	5%	2%	-4%	5%	1%	-7.2%
O=C1C2=C(SCCS2)C(=O)N1CCCO	14%	-5%	12%	8%	0%	10%	4%	-0.2%
COc1ccc(N=C2SC(CC(=O)Nc3ccccc3F)C(=O)N2Cc2ccco2)cc1 (stereo not given)	-12%	-14%	-7%	1%	-14%	-25%	?	-3.7%
COC(=O)CS(=O)(=O)c1ccsc1C(=O)Nc1ccc(F)c(F)c1	-12%[46.1 µM]	/	/	-2%	-2%	-9%	11%	/
CCCOc1c(OC)cccc1C1CC(=O)Nc2cc3c(cc21)OCO3 (stereo not given)	?	-13%	-4%	0%	?	30%	7.1µM*	-5.6%
CCOC(=O)C1CCN(C(=O)c2cccc(S(=O)(=O)N(C)C3CCCCC3)c2)CC1	-2%	/	/	-9%	-1%	-18%	-23%	/
Cc1cc(OCC(=O)N2CCC(C(=O)O)CC2)c2c(C)c(C)c(=O)oc2c1	/	/	2%	1%	-21%	6%	/	/
COc1cccc(OC)c1OCCCCCCN1CCN(C)CC1	/	/	9%	2%	-13%	6%	/	/
Cc1[nH]n(-c2ccccc2)c(=O)c1N=Nc1nccs1	?	-5%	-149%	-30%	4%	?	?	-4.9%
COc1ccc(NC(=O)CNS(=O)(=O)c2cccs2)cc1	5%	-4%	-23%	3%	0%	2%	-4%	0.3%
Cc1ccc(C(=O)COC(=O)c2cccc(NC(=O)c3ccc([N+](=O)[O-])cc3[N+](=O)[O-])c2)cc1	?	?	-2%	4%	?	-8%	?	5.6%
Cc1cccc(-n2ccnc2SCC(=O)Nc2cc(C)on2)c1	?	-7%	4%	-7%	-25%	32%	-5%	4.2%
COc1ccccc1/C=C/C(=O)c1cc(Br)ccc1OC(=O)c1ccco1	?	/	/	/	?	-4%	-6%	/
Cc1cccn2c(Nc3ccccc3)c(-c3ccc(N4CCOCC4)cc3)nc12	?	3%	/	/	-22%	/	-5%[46.1 µM]	0.7%
COc1ccc(NC(=O)CN(C)CC(=O)NCC2CCCCC2)cc1	9%[46.1 µM]	/	/	3%	-3%	-13%	-12%	/
COc1ccc(NC(=O)COC(=O)CC23CC4CC(CC(C4)C2)C3)c([N+](=O)[O-])c1	-28%	-8%	5%	-7%	?	-2%	-24%	-4.5%
O=C(NCCO)c1ccc2c3n(nc2c1)-c1ccccc1CO3	/	/	1%	-3%	20%	-8%	/	/
N#CC1=C(N)NC(SCC(=O)Nc2ccccc2)=C(C#N)C12CCCCC2	-6%[46.1 µM]	-9%	-14%	-17%	?	-2%	11%	-8.8%
CC12CCC(=O)C=C1CCC1C3CC(O)C(O)(C(=O)CO)C3(C)CC(O)C12F (stereo not given)	0%[46.1 µM]	/	/	/	19%	9%	1%[46.1 µM]	/
O=C(CSc1n[nH]c(=O)[nH]c1=O)N/N=C/C=C/c1ccccc1	/	/	3%	2%	3%	0%	/	/
SMILES	MARV entry inh	Cruzain inh noDet	NS1 function inh	SARS PLP yeast	StopGo reporter	RE007 growth inh	Lassa entry inh	Cruzain Triton
CC1CN(C(=O)COc2ccc3ccccc3c2)CC(C)O1 (stereo not given)	1%	/	/	0%	5%	12%	6%	/
O=C(CC(c1ccccc1)c1ccco1)N1CCOCC1 (stereo not given)	5%	7%	-3%	-16%	-8%	6%	-8%	0.6%
COc1cc(OC)cc(C(=O)NNC(=O)CCC2CCCC2)c1	-21%	/	/	2%	-19%	4%	6%	/
O=C(O)c1cncc(SCc2ccccc2)n1	4%	/	/	/	-6%	-10%	21%	/
CCOc1ccc(S(=O)(=O)c2cc3cccc(OCC)c3oc2=O)cc1	1%[46.1 µM]	-1%	/	/	-10%	/	10%[46.1 µM]	-1.2%
O=c1cc(O)c2ccccc2n1Cc1ccccc1	-15%[46.1 µM]	/	/	18%	-13%	5%	1%	/
O=C(CSc1nnc(NC(=O)Cc2ccc(F)cc2)s1)NCc1ccco1	?	/	6%	2%	-10%	14%	?	/
COc1ccc(NC(=O)C2CCN(S(=O)(=O)c3c(C)noc3C)CC2)cc1	-16%[46.1 µM]	/	5%	-5%	0%	-10%	-1%[46.1 µM]	/
Cc1oc2c(c(C)cc3oc(=O)c(CC(=O)NCCc4ccccc4F)c(C)c32)c1C	17%[46.1 µM]	-3%	/	/	-3%	/	1%[46.1 µM]	1.9%
CC(NC(=O)c1ccc2c(c1)OCO2)C1CCCO1 (stereo not given)	2%	3%	-5%	3%	39%[activator]	9%	0%	4.9%
COc1ccc(C(c2oc(CO)cc(=O)c2O)c2oc(CO)cc(=O)c2O)cc1	-1%[46.1 µM]	/	4%	4.5µM*	-1%	3%	9%[46.1 µM]	/
CCCN(CCC)CCCNC(=O)C1CCC(CNS(=O)(=O)c2ccc(NC(C)=O)cc2)CC1 (stereo not given)	/	-1%	/	/	1%	/	8%[46.1 µM]	1.1%
COc1ccc(NC(=O)/C(C#N)=C\c2ccc(-c3cccc(C(=O)O)c3C)o2)cc1	-14%[46.1 µM]	/	2%	-1%	2%	0%	-11%[46.1 µM]	/
CCOc1ccccc1NS(=O)(=O)c1ccc2c(c1)n(C)c(=O)c(=O)n2C	?	-2%	?	-4%	-8%	-10%	9%	3.3%
C/C=C/c1ccc(OCC(=O)Nc2ccc(C(N)=O)cc2)c(OC)c1	4%[46.1 µM]	/	/	-2%	-19%	3%	/	/
CC(C(=O)Nc1ccccc1C#N)N1C(=O)NC2(CCCCCC2)C1=O (stereo not given)	11%[46.1 µM]	/	/	-2%	-23%	4%	26%	/
Cc1ccc2cccc(NC(=S)NC(=O)c3c(Br)cnn3C)c2n1	-10%	?	12%	1%	68%[activator]	-15%	-1%	-2.9%
COc1ccc(OC)c(CNc2ncc(-c3cccc([N+](=O)[O-])c3)n2C)c1	/	/	12%	-6%	-10%	-2%	/	/
CCn1c(=O)c(=O)n(CC)c2cc(N3CCCCC3)c(NC(=O)c3cccc(F)c3)cc21	?	-3%	/	/	-19%	/	-13%[46.1 µM]	-1.3%
Cc1cc(C)c2c3c(sc2n1)C(c1cccc(F)c1)C(C#N)=C(N)O3 (stereo not given)	-40%	-2%	15%	-26%	-21%	-6%	?	-4.6%
CCOC(=O)c1[nH]c2ccccc2c1NC(=O)c1ccco1	?	-5%	-11%	-1%	-3%	-23%	-26%	0.7%
CCCN1C(=O)C(O)(c2c(C)[nH]c3ccccc23)c2ccccc21 (stereo not given)	/	/	-5%	-4%	-26%	-4%	/	/
COc1ccccc1OCc1nc2ccccc2n1C	8%[46.1 µM]	/	-2%	-2%	22%	1%	-6%[46.1 µM]	/
CNC(=O)CSc1nnc(-c2ccco2)n1-c1ccccc1	29%[46.1 µM]	/	8%	2%	20%	10%	-6%[46.1 µM]	/
C[C@@H]1C(=O)O[C@H]2[C@H](O)[C@@]34[C@H]5C[C@@H](C(C)(C)C)[C@]36[C@@H](OC(=O)[C@@H]6O)O[C@@]4(C(=O)O5)[C@@]12O	?	/	1%	2%	-11%	-6%	9%[46.1 µM]	/
O=C(NC1CCN(S(=O)(=O)c2ccc(F)cc2)CC1)c1cccc(F)c1	/	/	8%	-2%	-8%	5%	/	/

Gathered by group: those above containing a furan ring, fused or not
SMILES	MARV entry inh	Cruzain inh noDet	NS1 function inh	SARS PLP yeast	StopGo reporter	RE007 growth inh	Lassa entry inh	Cruzain Triton
COc1ccc(N=C2SC(CC(=O)Nc3ccccc3F)C(=O)N2Cc2ccco2)cc1 (stereo not given)	-12%	-14%	-7%	1%	-14%	-25%	?	-3.7%
COc1ccccc1/C=C/C(=O)c1cc(Br)ccc1OC(=O)c1ccco1	?	/	/	/	?	-4%	-6%	/
O=C(CC(c1ccccc1)c1ccco1)N1CCOCC1 (stereo not given)	5%	7%	-3%	-16%	-8%	6%	-8%	0.6%
O=C(CSc1nnc(NC(=O)Cc2ccc(F)cc2)s1)NCc1ccco1	?	/	6%	2%	-10%	14%	?	/
Cc1oc2c(c(C)cc3oc(=O)c(CC(=O)NCCc4ccccc4F)c(C)c32)c1C	17%[46.1 µM]	-3%	/	/	-3%	/	1%[46.1 µM]	1.9%
COc1ccc(NC(=O)/C(C#N)=C\c2ccc(-c3cccc(C(=O)O)c3C)o2)cc1	-14%[46.1 µM]	/	2%	-1%	2%	0%	-11%[46.1 µM]	/
CCOC(=O)c1[nH]c2ccccc2c1NC(=O)c1ccco1	?	-5%	-11%	-1%	-3%	-23%	-26%	0.7%
CNC(=O)CSc1nnc(-c2ccco2)n1-c1ccccc1	29%[46.1 µM]	/	8%	2%	20%	10%	-6%[46.1 µM]	/
